Screening results: PubChem BioAssay, National Center for Advancing Translational Sciences (NCATS)
RE007 growth inh – qHTS Assay for Inhibitors of the HIV-1 protein Vpr; Potency, µM (doses to about 92.2 µM), for the others: top-dose activity change, negative = less growth; S. pombe RE007 Vpr strain, BacTiter-Glo ATP luminescence, 24 h; control for the full effect not named in the record; hit rate 0.21% among 360,000; active = well fitted falling curve with a large enough effect; inconclusive = small, poorly fitted or top-dose-only effect; inactive = no such curve, though single readings can be large or run the other way;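 further: on the % scale 0 is the no-effect control and ±100 the full control effect; nearly all actives have a fitted effect of over 50% in size; the assay follows cell death caused by Vpr and the record does not say whether a fall means rescue or toxicity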
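Fission yeast RE007 carrying one integrated HIV-1 vpr copy, seeded at OD 0.01 in PMG+AL medium with 23 nL pinned compound. Grown 24 h at 30 degrees; viability read by BacTiter-Glo luminescence after 5 min.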
2A StopGo – High Throughput Screening for Foot and Mouth Disease Virus Antivirals | human cells with a luciferase reporter of 2A StopGo recoding; control for the full effect not named in the record | Potency, µM (highest dose often 57.9 µM), for inactives: at the highest dose signal change, negative = less light | AID 1159524, 2015 | hit rate 1.2% among 410,000; active = well fitted falling curve with a large enough effect; inconclusive = small, poorly fitted or top-dose-only effect; inactive = no such curve, though single readings can be large or run the other way; tested in HEK293T cells; further: on the % scale 0 is the no-effect control and ±100 the full control effect; nearly all actives have a fitted effect of over 45% in size; luciferase light after 4 h
Cruzain inh Det – qHTS Assay for Promiscuous and Specific Inhibitors of Cruzain (with detergent) | Cruzipain (Trypanosoma cruzi), P25779 | purified cruzain, Z-FR-AMC fluorescence, 0.01% Triton | Potency, µM, without a hit: max response, negative = inhibition, most hits filed as inhibitors | hit rate 0.43% among 200,000; active means well fitted curve in the direction sought with a large enough effect; inconclusive means small, poorly fitted or top-dose-only effect, or another doubt; inactive means no such curve, though single readings can be large; an effect the other way counts as inactive or inconclusive;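 further: plate controls were neutral wells for no effect and buffer without enzyme for full effect; nearly all actives have a fitted effect of over 40% in size; top concentration of the series not given in the record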
Target sequence (P25779 123-467 limits assumed): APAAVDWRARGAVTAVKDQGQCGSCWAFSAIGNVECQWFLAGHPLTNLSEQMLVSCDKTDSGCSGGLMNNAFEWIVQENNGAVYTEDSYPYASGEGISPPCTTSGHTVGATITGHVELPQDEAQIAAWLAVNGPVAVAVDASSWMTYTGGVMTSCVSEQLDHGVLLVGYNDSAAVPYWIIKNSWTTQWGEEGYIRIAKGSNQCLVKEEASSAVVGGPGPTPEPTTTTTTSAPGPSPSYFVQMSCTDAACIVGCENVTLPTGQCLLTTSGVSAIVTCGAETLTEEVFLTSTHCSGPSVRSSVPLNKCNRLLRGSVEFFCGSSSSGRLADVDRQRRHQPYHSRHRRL
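Detergent-containing arm of a paired screen for aggregation-based inhibition: 0.01% Triton X-100 present. Cruzain at 1.5 nM cleaved 2 uM Z-FR-AMC at pH 5.5 with 5 mM DTT; AMC fluorescence gain over 60 s measured activity.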
NS1 inh – qHTS Assay for Inhibitors of Influenza NS1 Protein Function; S. cerevisiae slowed by influenza A NS1, growth recovery by OD600; Potency, µM (series often up to 46.1 µM), inactives show at the top dose activity, positive = more growth; hit rate 0.4% among 270,000; further: actives are rising curves; nearly all actives have a fitted effect of over 50% in size
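In this qHTS, NS1 from influenza A is expressed in budding yeast, where it slows growth. Cells are switched from glucose to 2% galactose medium (pH 6.0, -URA), treated with compound, and growth recovery is read at OD600.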
Lassa entry inh – qHTS for Inhibitors of binding or entry into cells for Lassa Virus | Lassa virus pseudotype entry inhibition, cell reporter; control for the full effect not named in the record | Potency, µM (doses to about 37.9 µM), inactives show at the highest dose activity change, negative = inhibition, most hits filed as inhibitors | hit rate 1.2% among 300,000; active means well fitted inhibition curve with a large enough effect; inconclusive means small, poorly fitted or top-dose-only effect, or effect the other way; inactive means flat fitted curve, though single readings scatter; tested in HEK293 cells; further: on the % scale 0 is the no-effect control and ±100 the full control effect; nearly all actives have a fitted effect of over 50% in size; luciferase read-out
Marburg entry inh – qHTS for inhibitors of binding or entry into cells for Marburg Virus | Marburg virus pseudotyped entry inhibition, cell reporter; control for the full effect not named in the record; about a third of the inactives were read at about 46 µM | Potency, µM (highest dose often 37.8 µM), for the others: at the highest dose activity change, negative = inhibition, actives largely listed as inhibitors | hit rate 1.8% among 300,000; active = well fitted inhibition curve with a large enough effect; inconclusive = small, poorly fitted or top-dose-only effect, or effect the other way; inactive = flat fitted curve, though single readings scatter; tested in HEK293 cells; about a fifth of its hits are not listed in these tables; further: on the % scale 0 is the no-effect control and ±100 the full control effect; luciferase read-out
SARS PLpro yeast – qHTS of Yeast-based Assay for SARS-CoV PLP | hit rate 0.19% among 330,000 | Potency, µM (highest dose often 32.9 µM), for inactives: at the highest dose activity, positive = growth rescue | S. cerevisiae expressing SARS-CoV PLpro, growth rescue; control for the full effect not named in the record | AID 485353, 2010; further: 0% is about no effect; nearly all actives have a fitted effect of over 55% in size; growth read by luminescence after 48 h
Cruzain inh noDet – qHTS Assay for Promiscuous and Specific Inhibitors of Cruzain (without detergent) | Cruzipain (Trypanosoma cruzi), P25779 | purified cruzain, Z-FR-AMC fluorescence, no detergent | Potency, µM, without a hit: max response, negative = inhibition, usual class: inhibitors | hit rate 2.3% among 200,000 | AID 1476, 2009; active means well fitted curve in the direction sought with a large enough effect; inconclusive means small, poorly fitted or top-dose-only effect, or another doubt; inactive means no such curve, though single readings can be large; an effect the other way counts as inactive or inconclusive;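 further: plate controls were enzyme without inhibitor for no effect and buffer without enzyme for full effect; nearly all actives have a fitted effect of over 40% in size; top concentration of the series not given in the record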
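Detergent-free condition (0.00005% Triton X-100) in acetate buffer pH 5.5 with DTT. 1.5 nM enzyme and compound were pre-mixed 15 min, then 2 uM Z-FR-AMC substrate added; reaction progress from fluorescence change between first and third reads (60 s).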
The depositor's hits bear a star; ? = inconclusive; / = no result given; & = joins results of further samples; [ ] = dose if it differs, or a comment. Unless noted, the call rests on the fitted dose curve; in most records, active means well fitted rising curve with a large enough effect; inconclusive means small, poorly fitted or top-dose-only effect; inactive means no such curve, though single readings can be large or run the other way. Potency means the concentration at half of the fitted maximal effect.

SMILES | RE007 growth inh | 2A StopGo | Cruzain inh Det | NS1 inh | Lassa entry inh | Marburg entry inh | SARS PLpro yeast | Cruzain inh noDet
O=C(/C(=C/O)N=Nc1ccccc1)c1ccc(Cl)cc1 | 37% | ? | / | / | ? | ? | -32% | /
Cc1ccc2cc(CN(CCO)Cc3nnnn3Cc3ccc(F)cc3)c(=O)[nH]c2c1 | -7% | -19% | -0.3% | -11% | -3% | -16% | 3% | 20%
O=S(=O)(c1ccc(NCC2CCCCC2)nc1)N1CCOCC1 | -2% | 0% | 1.8% | -5% | 2% | -1%[46.1 µM] | -6% | 10%
c1cncc(Nc2nc(-c3cccnc3)cs2)c1 | 20% | 23% | -4.4% | -53% | 13% | 8% | 19% | -9%
CCC1CCCCN1C(=O)COC(=O)c1cc(=O)[nH]c2ccccc12 (stereo unspecified) | 7% | 29% | / | / | 16% | ? | 1% | /
O=C1NC(=O)N(CCC2=CCCCC2)C(=O)/C1=C/c1ccc(O)cc1 | -9% | -13% | 2.3% | -8% | / | 7% | -8% | 1%
S=C(Nc1ccccc1Cl)NC1CCCCCC1 | 8% | 47%[activator] | / | -53% | -3% | 6% | 0% | /
CCOc1ccc(-c2nc(SCC(=O)NC3CCCC3)c(-c3ccccc3)[nH]2)cc1OC | / | -20% | -9.2% | / | -25%[46.1 µM] | ? | / | ?
O=C(CSc1ncnc2c1oc1ccccc12)Nc1ccccc1C(F)(F)F | 20% | -26% | -1.5% | -7% | 7% | 23% | -24% | 1%
Cc1csc2nc(COc3ccc(NC(=O)COc4ccc(F)cc4)cc3)cc(=O)n12 | / | -10% | -3.1% | / | -4%[46.1 µM] | -13%[46.1 µM] | / | -12%
COC(=O)c1c(CSc2ccc(Cl)cc2)noc1C(=O)NCc1ccco1 | -14% | -21% | -9.0% | -4% | / | / | 2% | 10%
COc1cccc(CNC(=O)Cn2ccc3cc(S(=O)(=O)N4CCCCCC4)ccc32)c1 | 0% | -15% | / | 1% | / | / | 1% | /
CCN(CC)CCNC(=O)C(=O)NCC1OCCN1S(=O)(=O)c1ccc([N+](=O)[O-])cc1 (stereo unspecified) | -5% | -15% | -5.6% | -13% | -14% | -7% | 26% | -13%
COc1ccc(CNC(=O)C2CCC(CNc3c(N4CCOCC4)c(=O)c3=O)CC2)cc1 (stereo unspecified) | -16%&16% | -3%&-17% | 2.0% | -1% | -9%[46.1 µM] | 9%&9%[46.1 µM] | -4% | 4%
COc1ccc(S(=O)(=O)NC(C)C(=O)N2CCCC2)cc1C (stereo unspecified) | 0% | 20% | / | 18% | 18%[46.1 µM] | 10%[46.1 µM] | 1% | /
O=C(CSc1n[nH]c(-c2ccccc2)n1)Nc1ccc(F)cc1F | -4% | 3% | / | -24% | ? | -17% | -5% | /
Cc1ccc(-n2nc(C)c(NC(=O)COC(=O)c3ccccc3NCCO)c2C)cc1 | -1% | -21% | / | / | -2% | ? | -1% | /
CCOC(=O)CN(C(=O)CSc1nnc(CNc2ccc(F)cc2)n1CC)c1ccc(F)cc1 | 6% | 8% | -0.6% | 14% | -14% | ? | 4% | 14%
Cn1cc(CN2CC3C[C@@H]4CC2C[C@H](C3)C4)c(-c2ccc3c(c2)OCCO3)n1 | -4% | 0% | / | 5% | 5% | 0%[46.1 µM] | 1% | /
CC(C)Cc1ccc(C(C)/C=C2/CCC(CN3CCCCC3)C2=O)cc1 (stereo unspecified) | ? | 40µM* | / | / | ? | ? | / | /

Quoted at random: 2 entries already listed.
SMILES | RE007 growth inh | 2A StopGo | Cruzain inh Det | NS1 inh | Lassa entry inh | Marburg entry inh | SARS PLpro yeast | Cruzain inh noDet
CCN(CC)CCNC(=O)C(=O)NCC1OCCN1S(=O)(=O)c1ccc([N+](=O)[O-])cc1 (stereo unspecified) | -5% | -15% | -5.6% | -13% | -14% | -7% | 26% | -13%
COc1cccc(CNC(=O)Cn2ccc3cc(S(=O)(=O)N4CCCCCC4)ccc32)c1 | 0% | -15% | / | 1% | / | / | 1% | /

Next part
SMILES | RE007 growth inh | 2A StopGo | Cruzain inh Det | NS1 inh | Lassa entry inh | Marburg entry inh | SARS PLpro yeast | Cruzain inh noDet
O=C(COc1ccccc1F)NNC(=O)c1cccc(-n2cccc2)c1 | 6% | 5% | / | -7% | -2%[46.1 µM] | -1%[46.1 µM] | / | /
O=C(CN1C(=O)NC2(CCCc3ccccc32)C1=O)NCCc1ccc(F)cc1 (stereo unspecified) | 9% | 18% | / | / | 0%[46.1 µM] | 2%[46.1 µM] | 16% | /
CCN(Cc1ccccc1)C(=O)c1cc(-c2ccccc2)n[nH]1 | / | 78%[activator] | -5.9% | / | 12%[46.1 µM] | / | / | -16%
COc1ccc(N(C(=O)c2cccnc2)S(=O)(=O)c2ccc(OC)c(OC)c2)cc1 | 13% | 10% | / | 11% | / | / | -2% | /
Cc1c(NC(=S)NC(=O)c2cccc([N+](=O)[O-])c2)c(=O)n(-c2ccccc2)n1C | -6% | 2% | / | 17% | / | / | 3% | /
Cc1ccc(OCCn2cc(/C=C(\C#N)C(=O)NCC3CCCO3)c3ccccc32)cc1C (stereo unspecified) | / | ? | -6.1% | 16% | -22% | ? | 12% | 6%
CC1CCCCN1C(=O)c1cc(-c2ccc(Br)cc2)on1 (stereo unspecified) | / | 64%[activator] | -2.1% | / | 1%[46.1 µM] | ? | / | -13%
CC(C)[C@H](NC(=O)NC1CCN(Cc2ccccc2)CC1)C(=O)O | 3% | -4% | / | ? | 13% | 23% | 1% | /
CCOC(=O)Cc1csc(NC(=O)c2c(O)c3ccccc3n(C)c2=O)n1 | / | / | -1.4% | -35% | / | / | -3% | ?
NS(=O)(=O)c1ccc(CCNC(=O)COC(=O)Cc2c(F)cccc2Cl)cc1 | -12% | -14% | / | 5% | -1% | 5% | 3% | /
Cc1ccc(S(=O)(=O)N2CCN(Cc3csc(C)n3)CC2)cc1 | -14% | -12% | / | -2% | 7% | ? | -2% | /
CC(=O)c1c(C(C)=O)c(C)n(-c2cccc([N+](=O)[O-])c2)c1C | 10% | -14% | -0.2% | 2% | 20% | 32% | 8% | -2%
O=C(O)CCC(=O)Nc1ccccc1Oc1ccccc1 | -5% | -13% | / | -1% | 9% | 15%[14.2 µM] | 0% | /
Cc1ccccc1CCN(C(=O)c1csnn1)C(C(=O)NC1CCCC1)c1ccncc1 (stereo unspecified) | 4% | -2% | / | -4% | ? | -23%[46.1 µM] | 15% | /
Cc1ccc(-c2nc(CNC(=O)NC3CCCCC3)c(C)o2)cc1 | / | 0% | 1.4% | / | ? | / | / | 1%
COc1ccc(NC(=O)c2ccc(CN3C(=O)CCn4nc(C)cc43)cc2)c(OC)c1 | / | -24% | -1.8% | / | 18%[46.1 µM] | / | / | -1%
Cc1n[nH]c(=S)n1/N=C/c1ccc(Br)o1 | -3% | -12% | 1.4% | 3% | 13% | 17% | 3% | -1%
CC(C)c1ccc(OCC(=O)Nc2cccc3c2CCCC3)cc1 | -19% | -16% | -9.2% | 1% | ? | ? | 0% | -6%
O=C(CSc1nnc(-c2ccc(F)cc2)o1)Nc1ccccc1N1CCOCC1 | -9% | ? | / | / | 0% | 0% | / | /
Cc1ccc2c(c1)c1c(n2CC(O)Cn2ccnc2C)C(=O)CCC1 (stereo unspecified) | 0% | 0% | -6.3% | 4% | ? | ? | 7% | -4%
CC1CCc2c(sc(NC(=O)Cn3nc(C(F)(F)F)c4c3CCCCC4)c2C#N)C1 (stereo unspecified) | -9% | / | 1.6% | -3% | -16% | -6% | 2% | 20µM*
COc1cc(OC)cc(-c2cc3nc(C)cc(N4CCN(C(=O)c5ccco5)CC4)n3n2)c1 | / | / | -10% | 8% | / | -6% | -5% | ?
COc1cc(NC(=O)COc2cc(O)c3c(c2)OC(C)(C)CC3=O)cc(OC)c1OC | 0% | 4µM* | / | -4% | / | / | 1% | /
O=C(COc1ccc2ccccc2c1)NC1CC(=O)N(c2ccc(F)cc2)C1 (stereo unspecified) | / | -11% | -2.9% | / | -20%[46.1 µM] | / | / | 11%
CC(NC(=O)Cn1cccc1C(=O)c1ccccc1)c1ccccc1 (stereo unspecified) | 12% | 23% | / | 3% | / | / | -3% | /
Cc1sc2nc(COC(=O)Cc3ccccc3)[nH]c(=O)c2c1C | 4% | 3% | -3.2% | -8% | 17% | 4% | -1% | -1%
CCCCn1c(N)c(N(CCOC)C(=O)C2CC(=O)N(c3cccc(SC)c3)C2)c(=O)[nH]c1=O (stereo unspecified) | 8% | -1% | / | / | -11% | 3% | 0% | /
CC(C)CNC(=O)COc1ncnc2ccccc12 | -3% | 20% | 4.5% | -14% | -11% | 13% | -19% | 6%
COc1ccc(CNC(=O)c2cccc(NC3=NC4CS(=O)(=O)CC4S3)c2)cc1 (stereo unspecified) | 23% | -2% | / | 5% | / | / | 1% | /
CC1(C)CC(=O)C2=C(C1)OC(N)=C(C#N)C2c1ccc2c(c1)OCO2 (stereo unspecified) | 1% | 0% | / | -13% | 1% | -1% | -2% | /

4 of these compounds in a different format:
Compound,RE007 growth inh,2A StopGo,Cruzain inh Det,NS1 inh,Lassa entry inh,Marburg entry inh,SARS PLpro yeast,Cruzain inh noDet
O=C(COc1ccc2ccccc2c1)NC1CC(=O)N(c2ccc(F)cc2)C1 (stereo unspecified),/,-11%,-2.9%,/,-20%[46.1 µM],/,/,11%
CCCCn1c(N)c(N(CCOC)C(=O)C2CC(=O)N(c3cccc(SC)c3)C2)c(=O)[nH]c1=O (stereo unspecified),8%,-1%,/,/,-11%,3%,0%,/
CC1(C)CC(=O)C2=C(C1)OC(N)=C(C#N)C2c1ccc2c(c1)OCO2 (stereo unspecified),1%,0%,/,-13%,1%,-1%,-2%,/
COc1cc(NC(=O)COc2cc(O)c3c(c2)OC(C)(C)CC3=O)cc(OC)c1OC,0%,4µM*,/,-4%,/,/,1%,/
